Cruzain noTriton: blocks cruzain activity in detergent-free assay | P25779 | purified cruzain, Z-FR-AMC fluorescence, no detergent | Potency, µM, inactives show max response, negative = inhibition, hits mostly inhibitors | actives 2.3% (n = 200,000) | AID 1476;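 note: plate controls were enzyme without inhibitor for no effect and buffer without enzyme for full effect; nearly all actives have a fitted effect of over 40% in size; top concentration of the series not given in the record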
Target sequence (P25779 123-467 limits assumed): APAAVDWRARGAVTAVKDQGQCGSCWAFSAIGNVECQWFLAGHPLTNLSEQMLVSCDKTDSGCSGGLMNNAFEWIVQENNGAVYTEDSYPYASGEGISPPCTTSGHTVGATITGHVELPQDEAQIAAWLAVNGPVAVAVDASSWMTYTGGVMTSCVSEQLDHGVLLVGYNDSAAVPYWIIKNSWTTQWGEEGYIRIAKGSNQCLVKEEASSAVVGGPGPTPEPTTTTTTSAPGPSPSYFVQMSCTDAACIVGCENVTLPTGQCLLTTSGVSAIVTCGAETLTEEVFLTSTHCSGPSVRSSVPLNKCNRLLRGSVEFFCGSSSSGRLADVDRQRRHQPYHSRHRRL
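Detergent-free condition (0.00005% Triton X-100) in acetate buffer pH 5.5 with DTT. 1.5 nM enzyme and compound were pre-mixed 15 min, then 2 uM Z-FR-AMC substrate added; reaction progress from fluorescence change between first and third reads (60 s).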
Cruzain inh Det: blocks cruzain activity in presence of Triton detergent. P25779. purified cruzain, Z-FR-AMC fluorescence, 0.01% Triton. Potency, µM, inactives show max response, negative = inhibition, hits mostly inhibitors. actives 0.43% (n = 200,000). AID 1478;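 note: plate controls were neutral wells for no effect and buffer without enzyme for full effect; nearly all actives have a fitted effect of over 40% in size; top concentration of the series not given in the record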
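Enzyme 1.5 nM, Z-FR-AMC 2 uM, NaOAc 100 mM pH 5.5, DTT 5 mM, Triton X-100 0.01%; 15 min RT compound preincubation; kinetic ex360/em450, 60 s delta.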
Marburg entry inh: blocks Marburg virus binding to or entry into cells; Marburg virus pseudotyped entry inhibition, cell reporter; control for the full effect not named in the record; about a third of the inactives were read at about 46 µM; Potency, µM (series often up to 37.8 µM), for inactives: at the highest dose activity change, negative = inhibition, hits mostly inhibitors; AID 540276; actives 1.8% (n = 300,000); active = well fitted inhibition curve with a large enough effect; inconclusive = small, poorly fitted or top-dose-only effect, or effect the other way; inactive = flat fitted curve, though single readings scatter; tested in HEK293 cells; about a fifth of its hits are not listed in these tables; note: % is set by controls: 0 for no effect and ±100 for the full control effect; luciferase read-out
StopGo reporter: FMDV 2A StopGo reporter, luciferase signal | human cells with a luciferase reporter of 2A StopGo recoding; control for the full effect not named in the record | Potency, µM (highest dose often 57.9 µM), without a hit: at the top dose signal change, negative = less light | actives 1.2% (n = 410,000); active = well fitted falling curve with a large enough effect; inconclusive = small, poorly fitted or top-dose-only effect; inactive = no such curve, though single readings can be large or run the other way; tested in HEK293T cells; note: % is set by controls: 0 for no effect and ±100 for the full control effect; nearly all actives have a fitted effect of over 45% in size; luciferase light after 4 h
SARS PLP yeast: blocks SARS-CoV papain-like protease in a yeast assay. actives 0.19% (n = 330,000). AID 485353. S. cerevisiae expressing SARS-CoV PLpro, growth rescue; control for the full effect not named in the record. Potency, µM (titrated, usually from 32.9 µM), without a hit: at the highest dose activity, positive = growth rescue; active means well fitted rising curve with a large enough effect; inconclusive means small, poorly fitted or top-dose-only effect; inactive means no such curve, though single readings can be large or run the other way; note: 0% is about no effect; nearly all actives have a fitted effect of over 55% in size; growth read by luminescence after 48 h
LASV entry inh: Lassa virus entry inhibition; Lassa virus pseudotype entry inhibition, cell reporter; control for the full effect not named in the record; Potency, µM (doses to about 37.9 µM), for inactives: at the top dose activity change, negative = inhibition, actives largely listed as inhibitors; actives 1.2% (n = 300,000); active means well fitted inhibition curve with a large enough effect; inconclusive means small, poorly fitted or top-dose-only effect, or effect the other way; inactive means flat fitted curve, though single readings scatter; tested in HEK293 cells; note: % is set by controls: 0 for no effect and ±100 for the full control effect; nearly all actives have a fitted effect of over 50% in size; luciferase read-out
NS1 inh: influenza NS1 inhibition; S. cerevisiae slowed by influenza A NS1, growth recovery by OD600; Potency, µM (titrated, usually from 46.1 µM), inactives show top-dose activity, positive = more growth; actives 0.4% (n = 270,000); AID 2326; active means well fitted rising curve with a large enough effect; inconclusive means small, poorly fitted or top-dose-only effect; inactive means no such curve, though single readings can be large or run the other way; note: nearly all actives have a fitted effect of over 50% in size
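S. cerevisiae expressing influenza A NS1, grown in glucose, washed, then diluted 1:100 into pH 6.0 -URA galactose medium with 23 nl compound. Growth recovery read as OD600; NS1-free strain serves as control.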
RE007 growth inh: less growth of the S. pombe RE007 Vpr strain; S. pombe RE007 Vpr strain, BacTiter-Glo ATP luminescence, 24 h; control for the full effect not named in the record; Potency, µM (doses to about 92.2 µM), inactives show top-dose activity change, negative = less growth; actives 0.21% (n = 360,000); AID 651644; active = well fitted falling curve with a large enough effect; inconclusive = small, poorly fitted or top-dose-only effect; inactive = no such curve, though single readings can be large or run the other way;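 note: % is set by controls: 0 for no effect and ±100 for the full control effect; nearly all actives have a fitted effect of over 50% in size; the assay follows cell death caused by Vpr and the record does not say whether a fall means rescue or toxicity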
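Fission yeast RE007 carrying one integrated HIV-1 vpr copy, seeded at OD 0.01 in PMG+AL medium with 23 nL pinned compound. Grown 24 h at 30 degrees; viability read by BacTiter-Glo luminescence after 5 min.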
Starred values were filed as active, the others as inactive; u = inconclusive; x = not tested or not shown; & = joins results of further samples; [ ] = dose if it differs, or a comment. Unless noted, calls come from the whole dose curve; as a rule, active = well fitted curve in the direction sought with a large enough effect; inconclusive = small, poorly fitted or top-dose-only effect, or another doubt; inactive = no such curve, though single readings can be large; an effect the other way counts as inactive or inconclusive. Potency is the fitted concentration of half-maximal effect.

Molecule	Cruzain noTriton	LASV entry inh	SARS PLP yeast	Cruzain inh Det	RE007 growth inh	NS1 inh	Marburg entry inh	StopGo reporter
Cc1ccc(Cl)cc1N1CCN(C(=O)C2CCN(S(=O)(=O)c3c(C)nn(C)c3C)CC2)CC1	u	u	6%	-0.9%	-14%	-56%	u	32µM*
COc1ccc(Cn2c(CO)cnc2SCc2ccc(C)cc2)cc1	24%	2%[46.1 µM]	x	-4.5%	x	x	x	7%
CCC1(c2ccccc2)NC(=O)N(CC(=O)NNC(=O)c2ccoc2C)C1=O (stereo not given)	x	u	2%	x	-8%	x	1%	-9%
COc1ccc(N2CCN(C(=O)c3cc(-c4ccc(F)cc4)[nH]c3C)CC2)cc1	x	x	-4%	x	-17%	-1%	x	-22%
CC(C)CCOc1ccccc1Cn1c(=O)sc2ccccc21	-3%	20%[46.1 µM]	x	-4.0%	x	x	-2%[46.1 µM]	-13%
Nc1ccccc1-c1nc2ccccc2[nH]1	-4%	u	-13%	-17%	-23%	-71%	u	54%[activator]
O=C(NC(=S)Nc1ccccc1Br)c1ccc2c(c1)OCO2	x	-3%	0%	x	2%	9%	u	20%
O=C(NCCCNC(=O)c1cc(Cl)ccc1Cl)c1cnccn1	x	2%[46.1 µM]	1%	x	-8%	8%	-6%[46.1 µM]	6%
Cc1cc2nccc(-c3ccc(Cl)c([N+](=O)[O-])c3)n2n1	x	8%[46.1 µM]	-2%	x	10%	x	5%[46.1 µM]	0%
CCOc1cc(C(=S)N2CCOCC2)ccc1OS(=O)(=O)c1ccccc1	10%	u	27%	-3.6%	-17%	6%	-23%	-7%
CCNC(=S)NCCN1CCCCC1	0%	0%	7%	4.5%	0%	3%	18%	-22%
O=C(Nc1ccn(-c2ccccc2)n1)c1ccc(S(=O)(=O)N2CCCCCC2)cc1	u	4%	2%	-1.7%	-1%	-127%	-12%	x
COC(=O)c1cn(NC(=O)c2ccc3c(c2)OCO3)c(=O)c2ccccc12	-2%	-2%	-4%	-1.3%	4%	-35%	-12%	11%
CCOC(=O)C1CCN(C(=O)CCS(=O)(=O)Cc2ccccc2)CC1	x	x	1%	x	0%	2%	0%[46.1 µM]	0%
O=C(NNC(=S)NCc1ccco1)C(c1ccccc1)c1ccccc1	x	-2%	1%	x	5%	3%	22%[14.2 µM]	50%[activator]
CC1CCc2onc(C(=O)NCc3ccco3)c2C1 (stereo not given)	x	-8%	4%	x	u	x	-2%	45%[activator]
O=C(O)CC(c1ccccc1)n1cccc1 (stereo not given)	5%	-3%	-2%	-1.3%	2%	u	7%[46.1 µM]	-9%
COc1ccc(C(=O)Nc2ccc3c(c2)OCCO3)cc1Br	x	x	-3%	x	1%	4%	x	0%
CN(C(=O)c1coc(=O)c2ccccc12)c1ccc(F)cc1	-2%	u	-6%	1.6%	-2%	1%	u	-11%
CS(=O)(=O)N1CCC(CO)(Cc2ccccc2C(F)(F)F)CC1	x	x	-1%	x	3%	-1%	x	-18%
Cc1ccc(-n2nc3c(c2NC(=O)c2ccco2)CS(=O)(=O)C3)cc1C	x	-9%	-1%	x	2%	9%	3%	-18%
O=C(CSCc1cc(=O)c2ccccc2[nH]1)Nc1cccc(C(F)(F)F)c1	-6%	8%[46.1 µM]	x	-1.1%	x	x	x	0%
COc1ccc(C)cc1Nc1c2c(nc3ccccc13)CCC2	-2%	u	-1%	-9.8%	1%	-3%	u	u
Brc1ccc(-c2nc3ccccn3c2Nc2ccc3c(c2)OCCO3)o1	u	8%[46.1 µM]	x	-24%	x	x	2%[46.1 µM]	-25%
Cc1ccc(OCC(O)CN2CCN(c3ccc(C)cc3)CC2)cc1 (stereo not given)	x	x	-3%	x	-4%	7%	x	-7%
CNC(=O)C1CC(=O)N/C(=N/N=C(\C)c2cccs2)S1 (stereo not given)	-8%	8%	2%	-1.9%	17%	4%	u	-7%
CCOC(=O)c1ccc(NC(=O)CC2C(=O)N(c3ccccc3)C(=O)N2CCCOC)cc1 (stereo not given)	u	3%	22%	-1.3%	-8%	-2%	2%	-10%
Cc1ccccc1Nc1nn2c(=O)c3ccc(C(=O)N4CCCC(C)C4)cc3nc2s1 (stereo not given)	-5%	-1%[46.1 µM]	x	2.9%	-3%	x	x	-12%&-11%
COc1ccccc1Oc1ccc(Oc2ccccc2OC)cc1	x	u	-1%	x	-11%	x	10µM*	-20%
O=C(C1CCC1)N1CCN(Cc2ccccc2)CC1	-1%	1%	2%	5.0%	3%	-1%	u	7%
NC(=O)COC(=O)c1ccccc1Oc1ccccc1	x	u	-4%	x	3%	-6%	8%[46.1 µM]	-5%
Nc1nonc1-n1nnc(C(=O)N/N=C/c2cccs2)c1-c1ccc2c(c1)OCO2	x	9%[46.1 µM]	11%	x	1%	-3%	1%[46.1 µM]	2%
Cc1cc(C)c(Cn2c(=O)n(CCCC(=O)NCc3ccco3)c(=O)c3ccccc32)c(C)c1	x	-14%	x	x	-7%	11%	-2%[46.1 µM]	-12%
Cc1cccc(OCCC(=O)OC(C)C(=O)Nc2ccc(Cl)cn2)c1 (stereo not given)	x	-2%	7%	x	8%	x	u	-13%
Cc1ccc(NC(=O)CCN2C(=O)C3C4CCC(C4)C3C2=O)cc1Cl (stereo not given)	x	2%	4%	x	u	1%	13%	3%
O=C(CSc1nnc2n1CCCN2C(=S)Nc1ccc(Cl)cc1)c1ccccc1	u	-20%	-17%	-2.5%	16%	-24%	3%	36%[activator]
Cc1ccc(-n2cc(CN3CCN(C(=O)c4ncn[nH]4)CC3)c(-c3ccc(F)cc3)n2)cc1	x	x	0%	x	3%	1%	x	7%
Cn1c(O)c(N=Nc2nc(-c3ccccc3)cs2)c2ccccc21	-6%	1%	-4%	-5.1%	7%	18%	u	16%
Nc1cc(C(=O)N2CCCC2)cc(C(=O)N2CCCC2)c1	1%	23%	-5%	5.8%	1%	2%	u	x
COc1ccc(CNC(=O)COC(=O)CCc2nc3ccccc3c(=O)[nH]2)cc1	x	-23%	-1%	x	-13%	x	0%[46.1 µM]	2%
COc1ccc(/C=C2\CCCC3C2=NN(C(=O)CSc2ncn[nH]2)C3c2ccc(OC)cc2)cc1 (stereo not given)	u	u	-3%	-4.8%	4%	u	u	-30%
COc1ccc(NC(=O)C2CCC(=O)N2S(=O)(=O)c2ccc(C)cc2)c(OC)c1 (stereo not given)	1%	-1%	x	0.6%	10%	-6%	1%	24%
O=C(NCc1cccc(F)c1)C1CCC(=O)N(CC2CCCCC2)C1 (stereo not given)	x	-2%	0%	x	u	-5%	5%	-7%
Cc1c(NC(=O)c2ccc(-c3ccc([N+](=O)[O-])cc3Cl)o2)c(=O)n(-c2ccccc2)n1C	x	15%[46.1 µM]	1%	x	1%	2%	14%[46.1 µM]	-16%
C(=C\c1cc(/C=C/c2ccccc2)ncn1)/c1ccccc1	1%	4%	0%	-5.6%	-15%	-5%	7%	10%
O=C(CCc1ccccc1)NNC(=O)Nc1ccccc1	x	-2%	0%	x	-6%	3%	12%	17%
Cc1ccc(C)n1NC(=O)c1ccco1	-10%	u	2%	-7.6%	13%	9%	5%	0%
CC(C)OC1(c2ccccc2)OC(=O)c2ccccc21 (stereo not given)	x	x	0%	x	-7%	-6%	x	-7%
O=C(CC(=O)N/N=C/c1ccc(Cl)cc1Cl)NCc1ccccc1	u	-8%	3%	3.2%	15%	2%	4%	-22%
COc1ccc2cc(C)c(SCC(=O)Nc3cc(C)on3)nc2c1	-24%	u	4%	1.7%	13%	3%	-36%	x

Continuation:
Molecule	Cruzain noTriton	LASV entry inh	SARS PLP yeast	Cruzain inh Det	RE007 growth inh	NS1 inh	Marburg entry inh	StopGo reporter
OCCNc1nc2ccc(Cl)cc2[nH]1	u	3%	5%	-17%	-13%	2%	u	9%
CN1C2C=C3C(C#N)=C(N)C(C#N)(C#N)[C@@H](c4ccsc4)[C@@H]3C1CC2 (stereo not given in full)	-13%	16%	-7%	-6.3%	9%	-2%[9.22 µM]	-20%	-2%
COc1cc(OC)cc(C(=O)NCC(=O)OCC(=O)/C=C2/N(C)c3ccccc3C2(C)C)c1	x	-3%[46.1 µM]	-3%	x	11%	x	u	-36%
COc1ccccc1N1CCN(CC(O)COc2ccc3c(C)cc(=O)oc3c2)CC1 (stereo not given)	2%	-3%	-13%	-3.9%	-3%	-2%	-4%	-14%
Cc1ccc(C(C)C)cc2c(C)ccc1-2	7%	x	x	4.6%	10%[18.4 µM]	x	x	-21%&-11%
Cc1onc(-c2ccccc2)c1C(=O)N1CCN(S(=O)(=O)c2ccc(OC(F)(F)F)cc2)CC1	x	14%[46.1 µM]	1%	x	6%	13%	-4%[46.1 µM]	-10%
Cc1ccc2c(C)[nH]c(=O)cc2c1	2%	u	-1%	0.2%	4%	1%	u	-8%
O=C(Cc1c[nH]c2ccccc12)N1CCc2ccccc21	u	28%	-11%	-1.8%	4%	-5%	6%	55%[activator]
Cc1cccc(OCCC(=O)Nc2ccc(S(=O)(=O)N3CCCC3)cc2)c1	8%	-29%	-8%	-5.7%	1%	-36%	u	u
CCC(=O)Nc1ccccc1-c1nc2ccccc2n(C(C)C(=O)Nc2cccc(Cl)c2C)c1=O (stereo not given)	15%	-8%[46.1 µM]	x	-2.0%	x	x	3%[46.1 µM]	-19%

Assay outcomes (PubChem)
